# Assay outcomes: PubChem BioAssay, Southern Research Specialized Biocontainment Screening Center
# M. tuberculosis – growth inhibition of non-replicating M. tuberculosis (AID 488890). one-dose inhibition, % at 25 µM; IC50 in µM for titrated hits. 0.39% of 320,000 active. Mycobacterium tuberculosis non-replicating, growth inhibition; higher % means a stronger effect; in the data active = a potency from the dose series; inconclusive = inhibition mostly from about 82% at the one dose, without a potency; inactive = the rest, 99 in 100 with inhibition below about 76%;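 also: plate controls were DMSO cells for no effect and high antibiotic wells for full effect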
# M. tuberculosis HTS – M. tuberculosis growth inhibition, HTS (AID 449762). 0.59% of 330,000 active. inhibition, % at 25 µM; hits with a dose series show IC50 in µM. M. tuberculosis H37Rv growth inhibition, 7H9 media; higher % means a stronger effect; in the data active = a potency from the dose series; inconclusive = inhibition above about 70% without an active follow-up result;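 also: bacterial growth assessed after seven days of incubation; strong numbers were not always called active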
# VEEV TC-83 Vero – inhibitors of VEEV TC-83 cytopathic effect, confirmation, Vero cells (AID 588727); Vero cells, VEEV TC-83 cytopathic effect inhibition; higher % means a stronger effect; inhibition, % at 20 µM; hits with a dose series show IC50 in µM; 0.13% of 350,000 active; in the data active = a potency from the dose series; inconclusive = inhibition mostly from about 14% at the one dose, without a potency; inactive = the rest, 99 in 100 with inhibition below about 12%; also: strong numbers were not always called active
# The depositor's hits bear a star; i = inactive; ? = inconclusive; . = not tested or not shown; & = joins results of further samples. Not all compounds are listed; the hit share may differ from the screen's.
SMILES,M. tuberculosis,M. tuberculosis HTS,VEEV TC-83 Vero
O=c1[nH]cc(N=Cc2cc([N+](=O)[O-])ccc2O)c(=O)[nH]1,39%,8%,.
OCc1cccnc1,-3%,6%,.
C=C1C(=O)OC2CC(C)C3C=CC(=O)C3(C)C(O)C12 (centres undefined),.,.,i
C/C(CC(C)C)=N/Nc1ccc([N+](=O)[O-])cc1[N+](=O)[O-],9%,2%,i
NCCS,-9%,7%,0.6%
COc1ccc(CN(CC(O)COc2cccc3[nH]cc(C)c23)C(C)(C)C)cc1 (centres undefined),3%,8%,0.2%
c1ccc(-c2nccc(-c3ccc(-n4cnc5ccccc54)cc3)n2)nc1,?,11µM*,13%
N#C/C(=C/C1=C(N2CCOCC2)C(=C/c2ccccc2)/CC1)C(=O)Nc1ccccc1F,.,.,1.1%
O=C(Cn1cnc2ccccc21)Nc1ccc(SC(F)F)cc1,37%,-2%,2.6%
COc1cnc(-c2ccccn2)nc1Oc1ccc(C(C)(C)C)cc1,?,?,i
O=C(CSc1ccc(-c2ccccn2)nn1)Nc1ccccc1,?,?,1.6%
Cc1ccc(S(=O)(=O)NC2=C(N3CCN(c4ccccc4F)CC3)C(=O)c3ccccc3C2=O)cc1,-3%,2%,4.4%&7.9%
O=C(CCN1Cc2ccccc2C1)c1ccc2c(c1)OCCO2,?,9%,i
NCCCCCc1nnc(SCc2ccc(Cl)cc2Cl)o1,38%,-11%,i
N#C/C(=N\Nc1ccc([N+](=O)[O-])cc1)C(N)=S,?,0%,3.1%
Oc1ccc(N=Nc2ccc(Br)cc2)c(O)c1,49%,-4%,0.2%
CCCCN(CCCNc1ncnc2nc[nH]c12)c1ccccc1,.,3%,4.6%
O=C(O)[C@H](O)[C@@H](O)C(=O)O,3%,-6%,0.3%
COc1cccc2cc(C(=O)Nc3ccccc3C)/c(=N/O)oc12,78%,1%,1.7%
COc1cc(C(=O)NC(=S)NNC(=O)c2cnccn2)cc(OC)c1OC,-16%,0%,10%

# Quoted at random: two records from the list
SMILES,M. tuberculosis,M. tuberculosis HTS,VEEV TC-83 Vero
O=C(CCN1Cc2ccccc2C1)c1ccc2c(c1)OCCO2,?,9%,i
N#C/C(=C/C1=C(N2CCOCC2)C(=C/c2ccccc2)/CC1)C(=O)Nc1ccccc1F,.,.,1.1%

# Remaining list, next part:
SMILES,M. tuberculosis,M. tuberculosis HTS,VEEV TC-83 Vero
O=C(Nc1cccnc1)c1ccc([N+](=O)[O-])o1,?,4%,?
COc1cc(Br)cc(C=Nc2cccc(C(F)(F)F)c2)c1O,57%,7%,0.1%
O=C(CCl)Nc1nccs1,?,2µM*,?
Cc1ccc(C)c2c1[nH]c1ccc([N+](=O)[O-])cc12,31%,-2%,11%
COc1ccccc1Nc1c([N+](=O)[O-])cc(C)cc1[N+](=O)[O-],-3%,10%,0.4%
CC(C)(C)Nc1c2ccccc2nc2ccccc12,2%,-4%,3.1%
COc1cccc(C(=O)CC(=O)C(=O)Nc2cc(OC)c(OC)c(OC)c2)c1,-2%,-4%,.

# An excerpt from above in order of length of the SMILES, descending.
SMILES,M. tuberculosis,M. tuberculosis HTS,VEEV TC-83 Vero
COc1cccc(C(=O)CC(=O)C(=O)Nc2cc(OC)c(OC)c(OC)c2)c1,-2%,-4%,.
COc1ccccc1Nc1c([N+](=O)[O-])cc(C)cc1[N+](=O)[O-],-3%,10%,0.4%
COc1cc(Br)cc(C=Nc2cccc(C(F)(F)F)c2)c1O,57%,7%,0.1%

# Five consecutive records already listed, for reference:
SMILES,M. tuberculosis,M. tuberculosis HTS,VEEV TC-83 Vero
O=C(CCl)Nc1nccs1,?,2µM*,?
Cc1ccc(C)c2c1[nH]c1ccc([N+](=O)[O-])cc12,31%,-2%,11%
COc1ccccc1Nc1c([N+](=O)[O-])cc(C)cc1[N+](=O)[O-],-3%,10%,0.4%
CC(C)(C)Nc1c2ccccc2nc2ccccc12,2%,-4%,3.1%
COc1cccc(C(=O)CC(=O)C(=O)Nc2cc(OC)c(OC)c(OC)c2)c1,-2%,-4%,.

# Complete entries, quoted from the list:
# COc1cc(Br)cc(C=Nc2cccc(C(F)(F)F)c2)c1O is listed as M. tuberculosis: 57%; M. tuberculosis HTS: 7%; VEEV TC-83 Vero: 0.1%
# COc1cccc(C(=O)CC(=O)C(=O)Nc2cc(OC)c(OC)c(OC)c2)c1 is listed as M. tuberculosis: -2%; M. tuberculosis HTS: -4%; VEEV TC-83 Vero: .
